BJeLR viab HTS: BJeLR cell viability loss, primary screen, luminescence, CellTiterGlo ATP | BJeLR fibroblasts viability, 48 h; HRASV12, hTERT and SV40 LT/ST transformed | viability loss activity score, % (no concentration beside the values) | actives 0.64% (n = 30,000); in the data active = viability loss activity score above about 50%; about a fifth of its hits are not listed in these tables;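 note: higher score means fewer live cells and less ATP luminescence; stock transfer was 50 or 100 nL into about 30 µL; 0% = vehicle wells and 100% = a reference killing control; one replicate is shown; the record names a cut of 85%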
A1 inhib: inducers of caspase activity in MEF A1-2A-BIM cells, primary screen, A1 inhibitor project, cell-based, CaspaseGlo luminescence. caspase-Glo luminescence, 3 h; percent of clofoctol signal, DMSO as zero. caspase activation, % (no concentration beside the values). actives 0.51% (n = 21,000);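 active = most replicate scores above 10, or exactly half above 10 with mean activity above 10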;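 note: effector caspase 3 and 7 activity cleaving a DEVD luciferin substrate; 50 nL library stock added to about 30 µL; numbers are from one replicate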
Active calls of the source: *; . = not tested or not shown. The list is partial (hit frequency here may not be typical).

SMILES	BJeLR viab HTS	A1 inhib
Cc1noc(C)c1S(=O)(=O)Nc1ccc2c(c1)C(=O)N([C@@H](C)CO)C[C@H](C)[C@H](CN(C)C(=O)NC1CCCCC1)O2	9.5	-0.3
O=C(NCc1cc(F)cc2c1OCOC2)c1cnc2ccccc2n1	-0.8	-1.4
Cc1noc(C)c1S(=O)(=O)Nc1ccc2c(c1)C(=O)N([C@@H](C)CO)C[C@@H](C)[C@H](CN(C)C(=O)Nc1ccc3c(c1)OCO3)O2	3.7	-0.1
COc1ccc2cc(C(C)c3nc4ccccc4n3C)ccc2c1 (stereo not given)	1.4	-0.5
O=C(c1ccco1)N1N=C2c3ccccc3CCC2C1c1ccc(F)cc1 (stereo not given)	-2.9	-0.9
C=CCN(CC=C)C(=O)Cc1ccccc1OC	-0.2	-0.8
Cc1ccc(S(=O)(=O)N(C)C[C@@H]2Oc3ccc(NC(=O)Cc4ccccc4)cc3C(=O)N([C@@H](C)CO)C[C@@H]2C)cc1	-0.4	0.1
CCN(CC)C(=S)Oc1ccc(C(=O)Nc2cccc3ccccc23)cc1	8.5	1.6
Cc1noc(C)c1NC(=O)Nc1ccc2c(c1)C(=O)N([C@H](C)CO)C[C@H](C)[C@H](CN(C)Cc1ccc(Oc3ccccc3)cc1)O2	-3.3	0.0
COc1ccc(NC(=O)Nc2cccc3c2O[C@@H](CN(C)Cc2ccc4c(c2)OCO4)[C@@H](C)CN([C@H](C)CO)C3=O)cc1	-4.8	.
O=C(NC1CCS(=O)(=O)C1)/C(=C/c1ccccc1)NC(=O)c1ccccc1 (stereo not given)	1.7	0.6
CC(=O)OC(CCCCc1ccc(O)c(O)c1)CCc1ccc(O)c(O)c1 (stereo not given)	-9.9	0.1
C[C@H](CO)N1C[C@H](C)[C@@H](CN(C)C(=O)Nc2cccc3ccccc23)Oc2ccc(N(C)C)cc2C1=O	-8.7	0.8
COc1ccc(CN(C)C[C@@H]2Oc3ccc(NC(=O)NC(C)C)cc3C(=O)N([C@H](C)CO)C[C@H]2C)cc1	-2.4	-0.3
C[C@@H]1CN([C@H](C)CO)C(=O)c2cc(NC(=O)CCC(F)(F)F)ccc2O[C@H]1CN(C)Cc1ccc(C(F)(F)F)cc1	2.6	0.2
C[C@@H]1CN([C@@H](C)CO)C(=O)c2cccc(NC(=O)Nc3ccc4c(c3)OCO4)c2O[C@@H]1CN(C)S(=O)(=O)c1ccc(F)cc1	0.7	.
CCOC(=O)c1ccc(NC(=O)C(Sc2ccccc2)c2ccccc2)cc1 (stereo not given)	2.5	-0.2
C(=NCc1ccco1)c1cn(-c2ccccc2)nc1-c1ccccc1	-1.3	0.3
Cc1ccc(CSc2nc3ccccc3c(=O)n2CCc2ccccc2)cc1	1.2	-0.3
COc1ccc([C@@H]2CC(=O)c3c(O)cc(O)cc3O2)cc1O	4.7	-2.1
CCCOC(=O)Nc1cccc(C(=O)OCCC)c1	-0.9	-1.8
Cc1ccc2oc(=O)n(CCc3noc(-c4cc(C)on4)n3)c2c1	5.5	0.4
C[C@H](CO)N1C[C@H](C)[C@@H](CN(C)Cc2ccc(Oc3ccccc3)cc2)Oc2c(NS(C)(=O)=O)cccc2C1=O	0.6	.
C[C@@H]1CN([C@H](C)CO)C(=O)c2cccc(NC(=O)c3nc4ccccc4s3)c2O[C@H]1CN(C)CC1CCCCC1	-6.9	.
CNC(=O)Cn1ncc2c3ccccc3n(Cc3ccccc3F)c2c1=O	5.2	1.0
CC(C)NC(=O)Nc1cccc2c1O[C@@H](CN(C)C(=O)Nc1ccccc1)[C@H](C)CN([C@H](C)CO)C2=O	2.0	.
COc1cccc(C(=O)Nc2ccc3oc(-c4cccc(I)c4)nc3c2)c1	2.8	-0.1
C[C@H]1CN([C@@H](C)CO)C(=O)c2cccc(NC(=O)C3CCCCC3)c2O[C@H]1CN(C)Cc1ccc(C(F)(F)F)cc1	4.7	.
COc1cc([C@@H]2c3cc4c(cc3[C@H](O)[C@H]3COC(=O)[C@@H]23)OCO4)cc(OC)c1OC	93*	2.6
C[C@H](CO)N1C[C@H](C)[C@H](CN(C)C(=O)Nc2ccccc2)Oc2c(NC(=O)c3ccncc3)cccc2C1=O	3.3	.
COC(=O)c1sccc1-c1ccc(-c2ccn(C(=O)c3ccc(Cl)cc3)n2)o1	-3.1	-2.5
Cc1noc(C)c1S(=O)(=O)Nc1ccc2c(c1)C(=O)N([C@H](C)CO)C[C@@H](C)[C@@H](CN(C)C(=O)Nc1ccccc1)O2	3.0	1.5
COc1ccc(SCC(=O)Nc2ccccn2)cc1	-2.6	-3.0
COc1ccc(-c2cc(=O)c3c(O)c(OC)c(O[C@@H]4O[C@H](CO)[C@@H](O)[C@H](O)[C@H]4O[C@@H]4O[C@@H](C)[C@H](O)[C@@H](O)[C@H]4O)cc3o2)cc1	-5.5	0.0
Cc1noc(C)c1NC(=O)N(C)C[C@H]1Oc2ccc(NC(=O)CCC(F)(F)F)cc2C(=O)N([C@H](C)CO)C[C@H]1C	-0.7	0.2
COc1ccc(S(=O)(=O)N(C)C[C@H]2Oc3ccc(NC(=O)NC(C)C)cc3C(=O)N([C@H](C)CO)C[C@H]2C)cc1	6.1	-0.1
O=C(COC(=O)c1c(C(F)(F)F)cccc1C(F)(F)F)c1ccc(Cl)cc1	0.4	0.1
C[C@@H]1CN([C@@H](C)CO)C(=O)c2cccc(NS(=O)(=O)c3cn(C)cn3)c2O[C@@H]1CN(C)S(=O)(=O)c1cn(C)cn1	-4.6	.
C[C@@H]1CN([C@@H](C)CO)C(=O)c2cccc(NS(=O)(=O)c3cccs3)c2O[C@@H]1CN(C)Cc1ccc(-c2ccccc2)cc1	2.7	.
CN(Cc1ccccc1)C(=O)CCN1C(=O)COc2ccccc21	-3.5	0.5

Rewritten in markdown: 2 of the compounds above.
| SMILES | BJeLR viab HTS | A1 inhib |
| --- | --- | --- |
| C[C@@H]1CN([C@H](C)CO)C(=O)c2cc(NC(=O)CCC(F)(F)F)ccc2O[C@H]1CN(C)Cc1ccc(C(F)(F)F)cc1 | 2.6 | 0.2 |
| COc1ccc(S(=O)(=O)N(C)C[C@H]2Oc3ccc(NC(=O)NC(C)C)cc3C(=O)N([C@H](C)CO)C[C@H]2C)cc1 | 6.1 | -0.1 |

Pulled by compound from the entries so far, 5 records:
SMILES	BJeLR viab HTS	A1 inhib
Cc1noc(C)c1S(=O)(=O)Nc1ccc2c(c1)C(=O)N([C@@H](C)CO)C[C@@H](C)[C@H](CN(C)C(=O)Nc1ccc3c(c1)OCO3)O2	3.7	-0.1
Cc1noc(C)c1NC(=O)Nc1ccc2c(c1)C(=O)N([C@H](C)CO)C[C@H](C)[C@H](CN(C)Cc1ccc(Oc3ccccc3)cc1)O2	-3.3	0.0
Cc1ccc(CSc2nc3ccccc3c(=O)n2CCc2ccccc2)cc1	1.2	-0.3
CC(C)NC(=O)Nc1cccc2c1O[C@@H](CN(C)C(=O)Nc1ccccc1)[C@H](C)CN([C@H](C)CO)C2=O	2.0	.
O=C(c1ccco1)N1N=C2c3ccccc3CCC2C1c1ccc(F)cc1 (stereo not given)	-2.9	-0.9

The list goes on:
SMILES	BJeLR viab HTS	A1 inhib
O=C(Nc1ccccc1N1CCCC1)c1cccc(OCc2ccccc2)c1	-2.9	.
CC1(C)CC[C@]2(C(=O)O[C@@H]3O[C@H](CO[C@@H]4O[C@H](CO[C@@H]5O[C@H](CO)[C@@H](O)[C@H](O)[C@H]5O)[C@@H](O)[C@H](O)[C@H]4O)[C@@H](O)[C@H](O[C@@H]4O[C@H](CO)[C@@H](O)[C@H](O)[C@H]4O)[C@H]3O)CC[C@]3(C)C(=CCC4[C@@]5(C)CC[C@H](O)[C@@](C)(C(=O)O)C5CC[C@]43C)C2C1 (stereo not given in full)	-2.8	-0.4
COc1ccc(NC(=O)N(C)C[C@@H]2Oc3c(cccc3N(C)C)C(=O)N([C@H](C)CO)C[C@H]2C)cc1	2.2	.
CCOc1ccc(-c2cn3c(n2)sc2cc(C(=O)N4CCN(C)CC4)ccc23)cc1	7.6	1.6
CCOC(=O)c1cc(=O)c2ccc(OCC(=O)Nc3ccccc3)cc2o1	6.7	-0.2
COc1ccc(C2(CNC(=O)C(c3ccccc3)c3ccccc3)CCOCC2)cc1	-4.7	.
CCOC(=O)c1nnn2c1nc(SCc1ccc(F)cc1)c1ccccc12	-1.1	-1.5
CC(C)COc1ccc(OCC(C)C)c(N)c1	1.0	-0.2
O=C(c1cccs1)N(Cc1ccc(Br)cc1)c1ccc(F)cc1	-0.2	-0.2
N#Cc1ccc(C23CC4CC(CC(C4)C2)C3)nc1SCc1ccccn1	2.2	.
CCCCC(=O)Nc1c2c(nn1C(C)(C)C)CS(=O)C2 (stereo not given)	0.2	.
COc1ccc(NC(=O)N(C)C[C@@H]2Oc3c(NC(=O)C4CC4)cccc3C(=O)N([C@H](C)CO)C[C@@H]2C)cc1	-1.8	.
C[C@H](CO)N1C[C@H](C)[C@H](CN(C)S(=O)(=O)c2cccs2)Oc2ccc(NC(=O)NC3CCCCC3)cc2C1=O	0.0	0.3
O=C(NC1CCCCNC1=O)c1csc2ccccc12 (stereo not given)	5.2	-0.3
COC(=O)c1ccc(C(=O)OC)c(NC(=O)Cn2nc(C(F)(F)F)cc2C)c1	-0.9	0.5
COc1ccc(-c2cc(N)n(S(=O)(=O)Cc3ccccc3)n2)cc1	0.4	0.1
O=c1c(Cc2cc(Cl)cc(Cl)c2O)c(O)nc2n1CCCS2	0.5	-0.4
CC(=O)Nc1ccc(Cl)c(Cl)c1	-4.4	-0.5
Cc1cc(NC(=O)CSc2nc3nccnc3c(=O)n2Cc2ccccc2)n[nH]1	-1.2	-0.1
Cc1cc(N2CCCC2)n2c(nc3ccccc32)c1C#N	-5.7	0.3
C=CCC1c2cccc(C(=O)O)c2C(=O)N1c1cccc(OC)c1 (stereo not given)	2.5	0.1
COc1ccc(C2=CC(=O)OC3(CCCCC3)O2)cc1	3.9	-0.4
C[C@@H]1CN([C@H](C)CO)C(=O)c2cc(NS(=O)(=O)c3ccccc3)ccc2O[C@@H]1CN(C)S(=O)(=O)c1ccc(F)cc1	-1.3	-0.6
C=CCc1c(C)c(C#N)c2nc3ccccc3n2c1NCCc1ccc(OC)c(OC)c1	-1.0	-0.2
C[C@H]1CN([C@@H](C)CO)C(=O)c2cc(NC(=O)Nc3ccccc3)ccc2O[C@H]1CN(C)C(=O)Nc1ccc(F)cc1	1.8	0.4
COc1ccc(S(=O)(=O)Nc2cccc3c2O[C@@H](CN(C)C(=O)NC2CCCCC2)[C@H](C)CN([C@@H](C)CO)C3=O)cc1	-6.3	.
COc1ccc(S(=O)(=O)Nc2cncc(C(=O)Nc3ccc(C(F)(F)F)cc3)c2)cc1	-7.5	0.6
COc1cc(C)nc(SCC(N)=O)n1	-4.9	0.6
C[C@@H]1CN([C@@H](C)CO)C(=O)c2cccc(NS(=O)(=O)c3ccccc3)c2O[C@H]1CN(C)Cc1ccc(-c2ccccc2)cc1	-4.3	.
CCOC(=O)c1oc2ccc(OC)cc2c1CN1CCN(C)CC1	6.1	0.1
COCCn1c(SCC(=O)N2CCOCC2)nc2c(c1=O)SC(C)C2 (stereo not given)	-0.6	.
Nc1nnnn1/N=C/c1ccc(-c2ccc3c(c2)COC3=O)o1	4.2	.
COc1ccc(CN(C)C[C@H]2Oc3c(NC(=O)C4CCCCC4)cccc3C(=O)N([C@H](C)CO)C[C@H]2C)cc1	0.9	.
O=C1N=c2ccccc2=C1c1sc(Nc2cccc(C(F)(F)F)c2)nc1O	-1.4	-0.1
COc1ccc(NC(=O)Nc2ccc3c(c2)C(=O)N([C@@H](C)CO)C[C@H](C)[C@H](CN(C)CC2CCCCC2)O3)cc1	-2.0	0.8
C[C@@H]1CN([C@H](C)CO)C(=O)c2cc(NS(=O)(=O)c3ccc(F)cc3)ccc2O[C@H]1CN(C)CC1CC1	0.4	1.2
CC(C)CC1CC(=O)NC(N)=N1 (stereo not given)	6.9	.
CCCCC(C(=O)O)N1C(=O)c2ccccc2C1=O (stereo not given)	2.4	-0.3
COc1ccc(S(=O)(=O)Nc2cccc3c2O[C@@H](CN(C)S(=O)(=O)c2cn(C)cn2)[C@@H](C)CN([C@H](C)CO)C3=O)cc1	-4.3	.
Cc1ccc(S(=O)(=O)NCc2ccc(C(=O)N3CCN(c4ccccc4)CC3)cc2)cc1	2.6	-0.9
Cc1cc(C(=O)Nc2cccc3c2O[C@H](CN(C)S(C)(=O)=O)[C@H](C)CN([C@@H](C)CO)C3=O)n(C)n1	-4.9	.
CC(C)n1c2ccc(Cl)cc2c2nc3ccccc3nc21	-3.6	-1.4
C[C@@H]1CN([C@H](C)CO)C(=O)c2cc(NC(=O)Cc3ccccc3)ccc2O[C@H]1CN(C)C(=O)NC1CCCCC1	4.1	0.1
CC1(C)CC(=O)C=C(SCc2c(Cl)cccc2Cl)S1	-2.2	0.0
C[C@H]1CN([C@@H](C)CO)C(=O)c2cc(NC(=O)Nc3ccc(C(F)(F)F)cc3)ccc2O[C@@H]1CN(C)S(C)(=O)=O	-0.5	-0.3
COc1ccc(NC(=O)N(C)C[C@@H]2Oc3c(NS(=O)(=O)c4cccs4)cccc3C(=O)N([C@H](C)CO)C[C@@H]2C)cc1	0.1	.
Cc1noc(C)c1S(=O)(=O)Nc1ccc2c(c1)C(=O)N([C@H](C)CO)C[C@H](C)[C@@H](CN(C)S(=O)(=O)c1ccc(F)cc1)O2	-5.8	0.2
CCc1cccc(NC(=O)c2cc3cc4cc(OC)ccc4nc3s2)c1	-1.1	.
O=C1CC2(CCCC2)CC(=O)N1CCCCNCC1COc2ccccc2O1 (stereo not given)	-4.0	-0.6
Cc1nc2n(CCN3CCOCC3)c3ccccc3n2n1	-0.8	0.1
CC(C)(C)c1ccc(OCC(=O)Nc2cccc3nsnc23)cc1	-2.6	-3.3
